# Bfl-1 A1 inh – inhibitors of the anti-apoptotic protein A1, read as caspase activation; MEF A1-2A-BIM cells, Caspase-Glo 3/7 luminescence, 3 h; percent of clofoctol response, vehicle zero; caspase activation, % (no concentration beside the values); actives 0.066% (n = 330,000);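 active = over half of replicate activation scores above 10%, or exactly half above 10 with the replicate mean above 10; inconclusive = replicate mean below 10 yet half the replicates above 10; inactive = over half of replicates below 10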;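 note: wells of about 30 µL received 50 nL stock; many hits fall short of the cut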
# E coli growth – E. coli growth inhibition; Escherichia coli growth, OD600, 23 h; hits give low values; OD600 absorbance (concentration not given with the values); actives 0.21% (n = 330,000);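 active = OD600 absorbance below the run mean of sample wells minus 3.6 SD, in any replicate, cut at about 0.56 in these data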;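 note: stock transfer was 300 nL into about 60 µL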
# AF4-AF9 inh – blocks AF4 peptide binding to human AF9; P42568; AlphaScreen, biotin-AF4 peptide binding to FLAG-AF9; inhibition, % at 10 µM; actives 0.47% (n = 350,000);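 active = every replicate reaching a set inhibition limit, whatever the replicate mean, cut at about 25% in these data; inconclusive = mean inhibition reaches that limit but some replicates miss it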;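 note: 0% = plate neutral control median and 100% = total signal loss; the record names both 10 and 1 µM as test concentration; the first replicate is given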
# Target sequence (P42568 whole entry, looked up): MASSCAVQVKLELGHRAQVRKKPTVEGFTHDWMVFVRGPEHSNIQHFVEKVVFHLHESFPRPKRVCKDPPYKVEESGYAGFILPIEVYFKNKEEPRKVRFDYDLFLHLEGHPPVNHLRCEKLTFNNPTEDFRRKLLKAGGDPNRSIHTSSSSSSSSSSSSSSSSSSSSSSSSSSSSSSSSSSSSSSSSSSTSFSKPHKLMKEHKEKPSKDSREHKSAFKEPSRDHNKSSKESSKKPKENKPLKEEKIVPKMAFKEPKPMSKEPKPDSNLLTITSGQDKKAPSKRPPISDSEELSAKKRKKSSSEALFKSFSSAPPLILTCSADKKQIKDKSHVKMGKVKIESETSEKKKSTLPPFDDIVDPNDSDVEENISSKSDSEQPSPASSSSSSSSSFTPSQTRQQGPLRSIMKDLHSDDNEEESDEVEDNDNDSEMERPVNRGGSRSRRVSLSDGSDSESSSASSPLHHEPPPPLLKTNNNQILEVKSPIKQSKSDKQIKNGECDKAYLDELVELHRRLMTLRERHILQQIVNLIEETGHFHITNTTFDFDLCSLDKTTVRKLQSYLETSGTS
# T cruzi inh – T. cruzi replication inhibition; T. cruzi beta-gal in NIH3T3, luminescence, 90 h; inhibition, % (concentration not given with the values); actives 1.4% (n = 300,000);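 active = mean inhibition across valid replicates above about 55%, limit read from the data; inconclusive = mean below that limit but half or more replicates reach it; inactive = mean below it, under half of replicates reach it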;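 note: signal also drops with host cell toxicity which is not excluded here; 0% = plate median of DMSO wells and 100% = zero luminescence signal; higher percent means less beta-gal luminescence so fewer parasites; stock transfer was 50 nL into about 50 µL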
# rRNA inh HTS – inhibitors of bacterial rRNA selective over humanized ribosomes; E. coli WT GFP vs humanized-ribosome RFP mutants, fluorescence, 24 h; hits give low values; DMSO median 0, no signal -100; GFP signal change (wild-type ribosome), % (no concentration beside the values); actives 1.6% (n = 350,000); AID 720706;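 active = significant combined selectivity score with lowered wild-type GFP, culture density cut under 30%, mutant RFP and density less affected; inactive = any of these conditions unmet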; note: one replicate is shown; some compounds called inactive have numbers as strong as hits
# FGF22 binding – FGF22 (human) thermal shift binding. Q9HCT0. recombinant FGF22 thermal shift, SYPRO orange fluorescence; percent of sucrose octasulfate shift, DMSO zero. calls only at 9.99 µM. actives 1.5% (n = 340,000);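 active = melting point raised past a set limit in the mean and every replicate; inconclusive = no clear call; three in four hits are not shown here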
# Target sequence (Q9HCT0 whole entry, looked up): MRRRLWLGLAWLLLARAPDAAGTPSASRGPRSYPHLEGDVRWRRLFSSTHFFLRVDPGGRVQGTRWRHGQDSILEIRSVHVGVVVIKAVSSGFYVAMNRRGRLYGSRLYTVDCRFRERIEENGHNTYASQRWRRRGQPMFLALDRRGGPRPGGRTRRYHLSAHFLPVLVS
# Beta apoptosis – beta cell apoptosis inhibition; INS-1E cytokine-induced death, ATP luminescence, 48 h; percent of positive-control rescue, neutral wells zero; protection from apoptosis, % (test concentration not listed); actives 0.8% (n = 300,000);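 active = all replicates at 75% or more, or half of them and the mean; inconclusive = half reach 75% but not the mean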;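 note: 0% = cytokine-treated negative control wells and 100% = positive control rescue; higher means more ATP so stronger rescue from cytokine killing; wells of about 40 µL received 100 nL stock; the first replicate is given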
# UCH37 DUB inh – inhibitors of human deubiquitinating enzyme UCH37; Q9Y5K5; purified proteasome/UCH37, Ub-AMC cleavage fluorescence; inhibition, % (no concentration beside the values); actives 0.33% (n = 330,000);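 active = mean of two replicates above 20%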;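 note: 0% = compound-free wells with enzyme and 100% = wells lacking proteasome; stock transfer was 100 nL into about 20 µL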
# Target sequence (Q9Y5K5 whole entry, looked up): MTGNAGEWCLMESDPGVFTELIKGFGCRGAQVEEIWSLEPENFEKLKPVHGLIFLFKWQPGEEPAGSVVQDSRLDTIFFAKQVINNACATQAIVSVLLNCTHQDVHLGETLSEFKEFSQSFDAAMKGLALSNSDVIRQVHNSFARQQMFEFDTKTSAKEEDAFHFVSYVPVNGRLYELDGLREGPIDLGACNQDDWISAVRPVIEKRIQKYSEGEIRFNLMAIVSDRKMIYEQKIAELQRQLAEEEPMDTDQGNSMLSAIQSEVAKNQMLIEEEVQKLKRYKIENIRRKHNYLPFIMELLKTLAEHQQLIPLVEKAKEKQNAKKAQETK
#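 Material: Human UCH37 enzyme supplied as purified proteasome complex | Schedule: 30 min compound-proteasome preincubation then 25 min substrate reaction, room temperature | Detection: AMC fluorescence from Ub-AMC cleavage, excitation 355 nm, emission 460 nm | Benchmarks: Wells without proteasome as full block, compound-free enzyme plus substrate as uninhibited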
# rRNA inh HTS OD600 – further read-out of rRNA inh HTS, marked with its call; OD600 change, %; measured here: OD600 growth;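 optical density of the mix in the first replicate; 0 = DMSO median and -100 = no signal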
# rRNA inh HTS RFP – also measured in rRNA inh HTS; calls as there; RFP signal change, %; measured here: RFP humanized mutant strains;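 first replicate; 0 = DMSO median and -100 = no signal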
# Active calls of the source: *; i = inactive; ? = inconclusive; · = not tested or not shown. These rows are one share of the data; count on the stated rates, not on these rows.
SMILES,Bfl-1 A1 inh,E coli growth,AF4-AF9 inh,T cruzi inh,rRNA inh HTS,rRNA inh HTS OD600,rRNA inh HTS RFP,FGF22 binding,Beta apoptosis,UCH37 DUB inh
CC(C)n1c(SCCCc2ccccc2)nc2c1c(=O)[nH]c(=O)n2C,·,0.77,-2.7,8,1,1,-7.9,i,·,0.8
Nc1nc(N)c(N=Nc2ccc(SCC(=O)O)cc2)c(=O)[nH]1,-0.8,0.7,0.1,-5,5,16,-0.6,i,2,8.5
COc1ncnc(NS(=O)(=O)c2ccc(N)cc2)c1OC,-0.2,0.66,-11,·,·,·,·,i,·,0.3
COc1ccc([N+](=O)[O-])cc1NC(=O)C(C)NNC(=O)c1cccc([N+](=O)[O-])c1 (centres undefined),-0.5,0.69,4.6,·,-6,3,-0.6,i,7,5.1
COc1ccc(C2C(C(=O)N3CCN(c4ccccc4F)CC3)c3ccccc3C(=O)N2C)cc1 (centres undefined),-1.0,0.69,·,-9,·,·,·,·,-2,2.7
CCN(Cc1ccncc1)C(=S)Nc1ccc(Cl)cc1,0.9,0.68,-3.2,-21,3,-4,1.8,i,-3,-0.2
CCOC(=O)c1cc2c(N)c(C(=O)c3cc(C#N)c(SC)nc3C)sc2nc1C,0.1,0.67,·,36,·,·,·,·,16,-45
CC(=O)Nc1cccc(C(=O)N/N=C/c2ccccc2F)c1,-4.9,·,-1.3,-9,5,2,-1.3,i,-3,·
O=C(COC(=O)/C=C/c1ccco1)NCc1ccc(Cl)cc1,-0.3,0.69,0.9,·,·,·,·,i,-2,1.4
Cc1nc2c(cnn2-c2ccccc2)c(=O)n1/N=C/c1ccccc1,-0.4,·,5.0,-2,2,1,0.2,i,-2,·
Cc1ccccc1Cn1c(C)nc2ccccc21,0.5,0.63,-1.1,-8,-8,-13,-6.9,i,·,3.3
Cc1ccc(S(=O)(=O)N(C)CC(=O)NCC(c2ccco2)N(C)C)cc1 (centres undefined),0.7,0.65,-12,·,6,14,-3.3,i,0,-0.4
CCN(CC)S(=O)(=O)c1ccc(S(=O)(=O)Nc2ccc3c(c2)oc2ccccc23)cc1,0.3,0.75,·,13,·,·,·,·,-5,3.8
CCOC(=O)c1cc(-c2ccccc2)n(CCC(=O)N2CCN(c3ccccc3OC)CC2)c1C,0.2,0.68,·,21,·,·,·,·,5,-1.3
Cc1ccc(S(=O)(=O)NCCCOC(=O)Nc2ccncc2)cc1,0.1,0.7,·,9,·,·,·,·,1,3.2
Cc1nc([N+](=O)[O-])c(C(=O)OCc2ccccc2C#N)n1C,1.9,0.7,-1.3,-7,0,-13,-3.9,i,-4,4.4
COC(=O)c1ccccc1NC(=O)C(C)NS(=O)(=O)c1ccc(OC)cc1 (centres undefined),0.1,0.71,·,-6,·,·,·,·,·,-0.4
CCN(CC(=O)Nc1ccccc1OC)C(=O)CN1C(=O)NC2(CCCC2)C1=O,0.0,0.63,-2.9,3,12,8,-0.2,i,1,2.5
COC(=O)C1=C(C(=O)OC)[C@@H]2Nc3ccccc3[C@@]23C[C@@H](C(=O)OC)N(C(=O)c2cc(C)oc2C)C3=N1,0.8,·,·,1,·,·,·,·,-6,2.1
CC1(C)CC2(CCO1)C(Nc1ccccc1)=NC(=S)N2c1ccccc1 (centres undefined),1.0,0.69,1.1,-9,24,16,-0.6,i,2,1.2
NC(=O)CSc1nnnn1-c1ccc2c(c1)OCCO2,0.7,0.76,·,7,·,·,·,·,-8,4.4
Cc1nn(CC(=O)Nc2ccc(F)cc2)c(=O)c2ccccc12,0.9,0.65,6.4,11,3,19,1.5,i,5,1.6
O=C(O)/C(=C\c1ccc(Cl)cc1)c1ccc(S(=O)(=O)N2CCCC2)s1,0.9,0.66,-0.3,·,·,·,·,i,9,3.9
Cc1nnc(SCC(=O)N2CCC(c3noc4ccc(F)cc34)CC2)s1,0.1,0.72,5.5,2,-16,0,0.5,i,-19,-0.6
COC(=O)c1sc2ncccc2c1OCc1c(Cl)cccc1Cl,0.6,0.7,·,24,·,·,·,·,-5,0.2
COc1cccc(CN2CC(C(=O)N(C)Cc3nc4ccc(F)cc4[nH]3)CCC2=O)c1 (centres undefined),·,·,-6.4,2,2,8,-3.4,i,·,·
COC(=O)N(NC(=O)C(O)(CCC(C)C)CCC(C)C)c1ccccc1,0.3,0.71,-0.4,-5,7,10,1.3,i,3,-0.7
CCCCOc1ccc(CSCCNC(=S)Nc2ccccc2)cc1,-0.7,0.69,-3.8,50,9,-9,-4.1,i,14,4.8
CC(C)Oc1ccc(OCCn2c(S(=O)(=O)O)nc3c(N)ncnc32)cc1,-0.4,0.65,-1.6,-6,14,19,1.0,i,-6,-0.1
CC1(C)Cc2c(C#N)c(NCCCO)nc(-c3ccccc3)c2CO1,0.8,0.7,-0.5,9,-9,-13,-2.2,i,-8,-65
Cc1nc(NC(=O)CSc2nnc(Cn3nnc4ccccc43)n2C)sc1C,0.7,0.7,3.5,-7,17,20,0.2,i,·,0.9
CCOC(=O)c1ccccc1NC(=O)CSc1nc2[nH]ncc2c(=O)[nH]1,0.8,0.7,-1.9,-5,6,2,0.9,i,·,-1.4
CC(C)C[C@@H](CO)N1CCN(C)CCC1=O,2.4,0.76,0.6,0,13,10,9.9,i,0,-2.5
Cc1nnc(-c2cnn(-c3ccccc3)c2N)n1Cc1ccccc1,-0.4,0.67,·,-3,·,·,·,·,-6,-1.9
Cn1c(C(N)=O)cnc1Sc1ncc(C(F)(F)F)cc1Cl,0.2,0.71,·,-10,·,·,·,·,-6,3.2
O=C(c1cccc(S(=O)(=O)N2CCCC2)c1)N1CCOCC1,0.9,0.65,-5.2,·,2,17,-1.1,i,-2,1.2
COC1C(C)=C(C)C(=O)N1Cc1ccc(F)cc1 (centres undefined),0.5,0.68,1.0,-4,21,11,3.9,i,2,4.6
Cc1cccc(C(=O)OCC(=O)NC(C)CCc2ccccc2)c1O (centres undefined),-0.5,0.72,-2.8,7,16,16,1.8,i,0,-34
CCn1c(CNc2ccc(OC)cc2)nnc1SCC(=O)N1CCCc2ccccc21,-0.7,0.73,·,8,·,·,·,·,0,5.2
COC(=O)COc1ccc(-c2ccccc2)cc1C=O,-1.1,0.64,-2.5,-1,-2,2,1.4,i,-1,-18
COc1ccccc1C(=O)COC(=O)Cc1ccccc1F,-0.2,0.67,-5.3,·,·,·,·,·,-5,2.5
CNC1(C)[C@H]2CC[C@H](C2)C1(C)C (some centres undefined),·,·,6.9,·,12,20,-0.2,i,·,-3.2
COc1ccc(N2CCN(CC(O)COCc3ccccc3)CC2)cc1 (centres undefined),1.6,0.73,6.7,-11,-3,-4,-1.1,i,2,2.8
CN(C)CC(O)CN1C(=O)NC(C)(C)C1=O (centres undefined),0.6,0.65,-3.3,-15,-6,-5,-1.4,i,-2,1.7
CCOC(=O)c1c(N)sc(C(N)=O)c1C,0.6,0.69,·,-10,·,·,·,·,-6,2.2
COCC(=O)Nc1cc(Cl)c(OC)cc1OC,1.9,0.69,-2.0,-1,·,·,·,i,-2,4.2
COc1ccc(-n2nc(C(=O)NCC(=O)NCc3ccco3)c3ccccc3c2=O)cc1,0.1,0.74,·,-3,·,·,·,·,-2,-2.1
Cc1ccc(S(=O)(=O)Nc2cccc(C(=O)NCc3cccnc3)c2)cc1F,0.4,0.69,4.0,10,0,-1,0.5,i,20,6.5
O=C(c1cccs1)N1CCc2c([nH]c3ccccc23)C1c1ccc(Cl)cc1 (centres undefined),0.3,0.77,·,28,·,·,·,·,15,1.6
O=C(c1ccncc1)c1ccc(NC(=O)c2cccs2)cc1,-0.2,0.7,1.5,7,-1,0,-4.2,i,0,2.6
CCN(CC)C(=O)[C@H]1C[C@H](CC(=O)NCc2ccc(OC)c(OC)c2)C(=O)N2CCc3c([nH]c4ccc(Cl)cc34)[C@]12C,·,0.68,3.2,·,-24,-43,-0.8,i,·,1.4
COC(=O)c1cc(NC(=O)c2ccc(F)cc2)cc(C(=O)OC)c1,0.3,0.72,-3.2,-9,17,11,-2.6,·,9,3.3
O=C(Nc1ccccc1N1CCN(C(=O)c2ccccc2)CC1)c1ccco1,-0.4,0.66,0.6,6,-8,-10,-0.9,i,4,1.1
O=C(NC1CCCCC1)c1ccc(S(=O)(=O)N2CCCCC2)cc1,0.8,0.69,·,-4,·,·,·,·,3,-0.1
Cc1cc(C)c(NC(=O)CNC(=O)c2ccccc2OCc2c(C)noc2C)c(C)c1,0.4,0.69,-18,-4,4,10,2.2,i,-6,-0.4
COC(=O)c1c(NS(=O)(=O)Cc2ccccc2)sc2c1CCCC2,-1.4,0.69,·,-13,·,·,·,·,-1,5.3
COc1ccc(C)cc1S(=O)(=O)NC(C)C(=O)Nc1ccc2c(c1)OCO2 (centres undefined),0.8,0.69,-0.4,2,7,10,2.5,i,1,3.5
Cc1ccc(OCCC(=O)OCC(=O)Nc2c(C)nn(-c3ccccc3)c2C)cc1,0.4,0.69,-1.1,-8,5,9,5.9,·,-5,-2.3
Cn1c(N)c(C(=O)CSc2nnc3n2CCCCC3)c(=O)n(C)c1=O,0.1,0.68,-2.0,·,20,13,1.0,i,-6,0.7
CCN(c1ccccc1)c1nc(=O)c2cccnc2s1,1.1,0.65,-1.5,-2,-3,-6,-0.4,i,6,-3.6

# (next part)
SMILES,Bfl-1 A1 inh,E coli growth,AF4-AF9 inh,T cruzi inh,rRNA inh HTS,rRNA inh HTS OD600,rRNA inh HTS RFP,FGF22 binding,Beta apoptosis,UCH37 DUB inh
CC(C)(C)c1ccc(OCC(=O)Nc2ccc3c4c(cccc24)C(=O)NC3=O)cc1,·,0.75,-14,7,8,4,1.3,i,·,-102
Cc1ccccc1OCC(=O)NS(=O)(=O)c1ccc(Cl)cc1,-0.2,0.59,-6.9,0,-8,-10,1.1,i,8,1.8
Cc1ccc(NC(=O)CN2C(=O)NC3(CCCc4ccccc43)C2=O)c(Cl)c1 (centres undefined),-0.2,0.68,-2.0,·,2,-39,-23,i,2,6.0
CCOC(=O)c1ccccc1NC(=O)COC(=O)CN1C(=O)C2CC=CCC2C1=O (centres undefined),0.3,0.73,-0.6,-11,-1,-8,-1.3,i,·,3.9
CC(C)CC(=O)NS(=O)(=O)c1ccc(NC(=O)c2ccco2)cc1,?,0.71,·,-4,·,·,·,·,-2,1.4
Cc1cccc(OCCCc2c(C)n[nH]c2C)c1,1.4,0.68,·,1,·,·,·,·,1,0.0
COc1ccccc1C(=O)N1CCC(N2CCN(c3ccccc3OC)CC2)CC1,0.1,0.67,2.2,-4,30,7,0.2,i,-11,3.7

# Compound activity deposited in PubChem BioAssay by several laboratories.
